VDR inhibitor: Inhibitors of the vitamin D receptor (VDR): qHTS; Vitamin D3 receptor (Homo sapiens), P11473; VDR-SRC2-3 peptide fluorescence polarization, 2 h; Potency, µM, inactives show max response, negative = inhibition, actives largely listed as inhibitors; hit rate 0.93% among 400,000; AID 504847, 2011; active = well fitted inhibition curve with a large enough effect; inconclusive = small, poorly fitted or top-dose-only effect, or another doubt; inactive = no such curve, though single readings can be large or run the other way; note: series mostly up to about 120 µM
Target sequence (P11473 whole entry, looked up): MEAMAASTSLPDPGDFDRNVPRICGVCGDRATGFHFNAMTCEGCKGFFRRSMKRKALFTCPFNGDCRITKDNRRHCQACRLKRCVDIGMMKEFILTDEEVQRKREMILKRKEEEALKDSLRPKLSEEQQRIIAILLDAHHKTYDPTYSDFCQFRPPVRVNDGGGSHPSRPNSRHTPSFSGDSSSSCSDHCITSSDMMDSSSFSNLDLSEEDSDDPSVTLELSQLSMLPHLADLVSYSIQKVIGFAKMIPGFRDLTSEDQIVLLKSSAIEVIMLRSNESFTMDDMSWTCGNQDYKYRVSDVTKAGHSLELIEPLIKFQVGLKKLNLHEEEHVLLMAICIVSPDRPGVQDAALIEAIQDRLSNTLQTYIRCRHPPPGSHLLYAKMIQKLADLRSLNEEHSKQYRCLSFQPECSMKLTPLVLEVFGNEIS
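Two reagent solutions held at 4 deg C in the dark were dispensed, compounds pinned at 23 nl, and the mixture incubated 2 h at room temperature. Read-out: fluorescence polarization of VDR–SRC2-3 peptide binding.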
* marks the source's active call; other numbers are inactive results; ? = inconclusive; & = joins results of further samples. % is set by controls: 0 for no effect and ±100 for the full control effect; potency is the fitted concentration of half-maximal effect. These rows are one share of the data; count on the stated rates, not on these rows.

molecule | VDR inhibitor
C/C(=N\Nc1ccc(Cl)c(C(=O)O)c1)c1ccc2c(c1)OCO2 | -18.4%
CC(=O)c1oc2ccccc2c1NC(=O)CN1CCCCC1 | -2.9%
Cc1cc(OCC#N)nc(N)n1 | -26.5%
COc1ccc(N2CCN(C(=O)CCC(=O)NNc3nc4ccccc4c4nc(C)nn34)CC2)cc1 | -10.0%&18.0%
COc1ccc(S(=O)(=O)NCCC(=O)NC2CCCCCCC2)cc1 | 16.7%
Cc1ccc(-c2cc(-c3n[nH]c(=S)n3C)c3ccccc3n2)cc1 | -14.6%
COCCCn1nnnc1SCC(=O)Nc1ccc2c(c1)OCCO2 | 12.9%
CCCN1CN=C(NS(=O)(=O)c2ccc(NC(C)=O)cc2)NC1 | 1.6%
COc1ccccc1CN1[C@@H](CC(C)=O)c2cc(C(F)(F)F)ccc2S1(=O)=O | -11.0%
Cc1ccc(S(=O)(=O)NNC(=O)C2CCN(Cc3ccccc3)CC2)cc1 | -3.5%
Brc1ccc(-n2cc(-c3ccccc3)c3c(NN4CCOCC4)ncnc32)cc1 | 0.0%
O=C(CSc1nnc2sc3ccccc3n12)c1ccco1 | -17.8%
O=S(=O)(NCc1ccco1)c1ccc(Cl)s1 | 9.5%
CNC(=O)NC(=O)C(OC(=O)Cc1cccc(C(F)(F)F)c1)c1ccccc1 (stereo not given) | -5.9%
CC(=O)Nc1ccc(S(=O)(=O)NC(CC(=O)O)c2ccc(OC(C)C)cc2)cc1 (stereo not given) | -8.8%
O=C1c2ccccc2C(=O)N1n1cccc1 | 17.8%
Cc1cccc(NC(=O)C2CCCN(c3nc(C)cc(C)n3)C2)c1 (stereo not given) | -7.1%
COc1ccccc1N1CCN(C2CCN(C(=O)COc3ccccc3)CC2)CC1 | 16.9%
Cn1nc(OCC(N)=O)ccc1=O | 17.4%
COc1cc(OC)c(N(C)C(=O)CCNC(=O)Cn2cnc3ccccc3c2=O)cc1Cl | 10.6%&7.1%

Sorted by the number under VDR inhibitor (smallest number first): 3 from the list above
molecule	VDR inhibitor
O=C(CSc1nnc2sc3ccccc3n12)c1ccco1	-17.8%
CC(=O)Nc1ccc(S(=O)(=O)NC(CC(=O)O)c2ccc(OC(C)C)cc2)cc1 (stereo not given)	-8.8%
Cc1cccc(NC(=O)C2CCCN(c3nc(C)cc(C)n3)C2)c1 (stereo not given)	-7.1%

Later entries
molecule | VDR inhibitor
CCOc1ccccc1N1CCN(c2nc3ccccc3nc2C(C#N)C(=O)OC)CC1 (stereo not given) | 4.2%
Cc1cccc(N2CCN(C(=O)CSc3ccc4c(c3)OCCO4)CC2)c1C | -13.3%
CCC1=Nc2cc(C(=O)NC3CCC(C)CC3)ccc2Sc2ccc(C)cc21 (stereo not given) | 11.2%
Cn1c(NC(=O)Cc2cccc3ccccc23)cc(=O)n(C)c1=O | -6.4%
CCCCCCCCNS(=O)(=O)CCNCc1ccccc1OC | 6.4%
Cc1cc(C)nc(N2C(=O)CC(Cc3ccc(Cl)cc3)C2=O)n1 (stereo not given) | 12.9%
COCCSc1ccccc1C(=O)NCc1cccnc1 | -1.2%
CC(=O)CC(C)(C)S(=O)(=O)c1ccc(Oc2ccc(S(=O)(=O)C(C)(C)CC(C)=O)cc2)cc1 | -2.0%
Cc1c(C)n(CCC(=O)O)c2ccccc12 | 6.7%
Oc1ccc(/C=N/Nc2nc(-c3cccnc3)nc3ccccc23)c(O)c1 | 6.1%
CN(C(=O)CC1C(=O)NCCN1C/C=C/c1ccccc1)C1CCOCC1 (stereo not given) | 15.8%
Cc1cccc(N(C)C(=O)Cn2c(=O)oc3cc(S(=O)(=O)N4CCCCC4)ccc32)c1 | 6.6%
CCOc1cccc2sc(N(CCCN(C)C)C(=O)c3ccc(S(=O)(=O)N4CCCCCC4)cc3)nc12 | 5.2%
COc1ccc(-c2noc(C3CC(=O)N(c4ccc5c(c4)OCCO5)C3)n2)c(OC)c1 (stereo not given) | 6.2%
N#CC1(c2ccc(NC(=O)c3ccccc3F)cc2)CCCC1 | 0.5%
COc1ccccc1N1CCN(C(=O)c2ccc(N(C)S(=O)(=O)c3ccccc3)cc2)CC1 | 10.6%
COc1cc(/C=C/C(=O)O)cc(OC)c1 | 13.9%
O=C(c1ccc2c(c1)OCO2)N1CCN(c2cccc(C(F)(F)F)c2)CC1 | -6.6%
CC(C)c1ccc(NC(=O)N2CCc3ccccc3C2)cc1 | 11.3%
O=C(NCCCNC(=O)c1cnccn1)c1ccc(Cl)cc1 | 12.9%

(list continues)
molecule | VDR inhibitor
CC(=O)O[C@]1(C(C)=O)CC[C@H]2[C@@H]3C=C(C)C4=CC(=O)CC[C@]4(C)[C@H]3CC[C@@]21C | -8.8%
CCOC(=O)C1=C(Nc2ccc(C)cc2)CC(C)(O)C(C(=O)OCC)C1c1ccccc1 (stereo not given) | 12.9%
CCOC(=O)c1cn(CC)c2cc(N3CCOCC3)c(F)cc2c1=O | 7.8%
COc1ccc(-n2ncc3c(NCC(C)C)ncnc32)cc1 | 19.5%
COc1cc(C2NC(=O)c3c(sc4c3CCN(C)C4)N2)ccc1OC(=O)c1ccccc1 (stereo not given) | -3.1%
Cc1ccc2[nH]c(CNC(=O)C3CCCCC3)cc2c1 | -0.9%
COc1ccc([N+](=O)[O-])cc1NC(=O)C1(c2ccccc2)CCOCC1 | -19.3%
CCC(C)NC(=O)c1ccccc1-c1ccccc1C(=O)NC(C)CC (stereo not given) | -7.6%
COc1ccc(CN2C(=O)C(C)Oc3ccccc32)cc1 (stereo not given) | -31.6%
CCN(CC)C(=O)[C@H]1CC(CC(=O)NCc2ccc(OC)c(OC)c2)C(=O)N2CCc3c([nH]c4ccc(OC)cc34)[C@]12C (stereo not given in full) | -1.4%
O=c1c2ccccc2c(C=NCCCN2CCOCC2)c(O)n1Cc1ccc2c(c1)OCO2 | -20.6%
CC(=O)N1CCN(CC(=O)Nc2cc(S(=O)(=O)N3CCOCC3)ccc2C)CC1 | -15.1%
COc1ccc(Nc2nc(-c3cccs3)nc3ccccc23)cc1 | -16.3%
O=C(COc1ccc2ccccc2c1)N1CCN(c2ccccc2O)CC1 | -19.3%
COc1ccc(/C=C(\NC(=O)c2ccc(C)cc2)C(=O)NCCCN2CCOCC2)cc1OC | 3.1%
CCOc1ccc(NC(=O)C2CCN(S(=O)(=O)c3c(C)noc3/C=C/c3c(C)cc(C)cc3C)CC2)cc1 | 1.8%
CCN(CC)CCN(C(=O)C1=COCCO1)c1nc2cc(C)cc(C)c2s1 | 5.6%
COC(=O)c1c(SC)nc2ccccc2c1OCc1ccccc1Cl | 9.0%
Cc1cc(C)c(C)c(Oc2ncnc(N)c2[N+](=O)[O-])c1 | -8.5%
Cc1c(Cl)cccc1NC(=O)COC(=O)c1ccc(CN2CCCC2=O)cc1 | 17.9%

More entries
molecule | VDR inhibitor
Cc1ccc(C(=O)NC23CC4CC(CC(C4)C2)C3)c(Cl)c1 | 2.3%
O=C(COc1ccccc1)NCc1nnc2c3ccccc3c(-c3ccccc3)nn12 | -0.4%
Oc1ccccc1C=NNC(=S)Nc1ccc(F)cc1 | 10.6%
Cc1cc(-c2n[nH]c(=S)n2/N=C/c2ccc(C)o2)n[nH]1 | 7.3%
Cc1csc(=O)n1CCC(=O)OCC(=O)c1ccc(Br)cc1 | 12.9%
CCNC(=S)Nc1ccc(Cl)cc1Cl | 8.7%
COc1ccccc1NC(=O)Cn1c(SCC(=O)NCc2ccccc2)nc2ccccc21 | 7.2%
Cc1ccc(NCC(=O)N=Nc2c(O)[nH]c3ccc([N+](=O)[O-])cc23)cc1 | 22.7%
CCOc1ccccc1-c1nnc(SCC(=O)NC2CC2)n1CC | 9.2%
COc1cccc(Sc2cc(N3CCOCC3)nc(-c3ccccc3)n2)c1 | -0.5%
Cc1ccc(N2C(=O)CC(Cc3cc(C)cc(C)c3)C2=O)cc1 (stereo not given) | 8.3%
O=C(Nc1cccc(C(F)(F)F)c1)c1cnn(-c2cccc(F)c2)c1C1CCNCC1 | -10.2%
COC(=O)C1(CCSC)NC(c2ccco2)C2C(=O)N(C)C(=O)C21 (stereo not given) | -3.1%
COc1ccc(Cl)cc1NC(=O)c1sc2nc3n(c(=O)c2c1C)CCC3 | 2.9%
COC(=O)c1cc(=O)nc2sc3ccccc3n12 | 8.7%
O=C(O)c1c2c(nc3ccccc13)CCCCC2 | -22.1%
COc1ccc2nc(N(CCN(C)C)C(=O)c3ccc(C(=O)c4ccccc4)cc3)sc2c1 | -10.6%
Cc1cc(=O)c(C(=O)O)nn1-c1ccccc1C(F)(F)F | -11.8%
O=C(NCCN1CCCC1)c1ccc2c(c1)N(Cc1cccc(Cl)c1)C(=O)c1ccccc1S2(=O)=O | -3.7%
CC1N(C)c2cccc3cccc(c23)N1C | -4.0%

Following part:
molecule | VDR inhibitor
O=C(NCCc1ccccc1)c1ccc(Cn2c(SCc3ccc(F)cc3)nc3cccnc32)cc1 | 4.8%
CCOC(=O)c1c(NC(=O)c2ccc(C)c(C)c2)sc2c1CCCCC2 | -12.5%
Cc1ccc(NS(=O)(=O)c2ccc3c(c2)CCCN3C(=O)C2CCC2)cc1Cl | -7.8%
O=C(c1cnsn1)N1CCCC(Nc2ccc(F)c(F)c2)C1 (stereo not given) | -13.1%
CN(C)C(=O)Cn1c(=O)n(C)c2ccccc21 | 7.7%
CCOCCCn1c(=S)[nH]c2ncccc2c1=O | 13.0%
CCOC(=O)N1CCc2c(sc3c2c(=O)n(-c2ccccc2C(F)(F)F)c(=O)n3Cc2ccccc2C)C1 | 4.7%
O=S(=O)(c1cccc(F)c1)N1CCN(c2nc(-c3cccnc3)nc3ccccc23)CC1 | -16.4%
COC(=O)c1scc(-c2ccc(C)cc2)c1S(=O)(=O)Nc1cc(C)c(Cl)cc1OC | 11.9%
Cc1nn(Cc2ccccc2)c(Cl)c1/C=N/NC(=O)c1cccnc1 | -13.9%
Cc1onc(NC(=O)NC(=O)c2ccccc2F)c1Br | -8.5%
Fc1cccc(CN2CCN(C(=S)NCCc3ccccc3)CC2)c1 | -16.7%
COc1ccccc1NC(=O)c1ccc(NC(=O)CNC(=O)c2ccc(OC)c(OC)c2)cc1 | -5.4%
CSc1ccc(-c2nc3cc(C)ccn3c2Nc2ccc(C)cc2)cc1 | -4.2%
CC(C)CC(=O)NC(=S)NNC(=O)c1cccc([N+](=O)[O-])c1 | -18.8%
CC(=O)c1ccc(NC(=O)COC(=O)c2c[nH]c3ccccc23)cc1 | 2.3%
O=C(CN1C(=O)c2ccccc2S1(=O)=O)Nc1cccnc1 | -3.6%
O=C1CC(c2ccc3ccccc3c2)NN1 (stereo not given) | -19.7%
CC(C)C(=O)Nc1c2c(nn1-c1ccc([N+](=O)[O-])cc1)CS(=O)(=O)C2 | 5.0%
COc1ccc(NC(=O)c2cc(C)nn2-c2ccccc2)cc1 | -13.0%

The results go on.
molecule | VDR inhibitor
c1ccc(-n2ncc3c(N4CCC5(CC4)OCCO5)ncnc32)cc1 | 15.7%
O=C(N=Nc1c(O)[nH]c2ccc([N+](=O)[O-])cc12)c1cc(-c2ccccc2Cl)nc2ccccc12 | 3.5%
Nc1cc2c(cc1Br)-c1c(C(=O)O)cccc1C2O (stereo not given) | -24.0%
Cn1c(N2CCOCC2)c(/C=N/OC(=O)c2cccnc2Cl)c2ccccc21 | -13.7%
CCOC(=O)N1CCN(C(=O)Nc2cccc(Cl)c2)CC1 | 17.1%
CCC(NC(=O)NC1CCCCC1)c1ccccc1 (stereo not given) | 11.6%
CCOc1ccc(C2C(C#N)=C(N)Oc3nc[nH]c(=O)c32)cc1OC (stereo not given) | 11.6%
CCn1cc(CNC(=O)c2cccc([N+](=O)[O-])c2)cn1 | 4.9%
CN1CCCN(C(=O)c2cc(-c3cccc4ccccc34)nc3ccccc23)CC1 | 12.4%
CCOc1ccc(Cc2noc3c2C(=O)CCC3)cc1OCC | 2.2%
O=C(COC(=O)COc1ccc(Cl)cc1)NCc1ccc2c(c1)OCO2 | -11.4%
Cc1nc2ccc(C(=O)OCc3nnc(-c4ccccc4)o3)cc2nc1C | -13.9%
C=CCSc1nnc(NC(=O)CSCc2c(C)noc2C)s1 | -2.5%
CCCCn1cnc2c(SCc3ccc([N+](=O)[O-])cc3)nc(N)nc21 | 16.2%
Cc1nc(Cl)c(C(=O)NC(C)(C)C)c(C)c1Cl | -22.0%
O=C1c2ccccc2C(=O)N1CCOc1ccccc1 | 2.2%
COc1ccc(CNC(=O)C2CC(c3cccc([N+](=O)[O-])c3)=NO2)cc1 (stereo not given) | 10.7%
Nc1nonc1-c1noc(-c2ccccc2)n1 | 1.1%
CN(Cc1ccccc1)Cc1ccccc1 | -3.1%
Cc1ccc(/C=N/Nc2ncnc3nc[nH]c23)cc1 | -7.4%

Continuation.
molecule | VDR inhibitor
CC(c1ccccc1)n1cc(C(=O)NCc2ccncc2)nn1 (stereo not given) | ?
CC(C)(C)N1CC(COc2ccccc2)OC1=O (stereo not given) | -8.6%
Cc1ccc2nc(CSc3nnc(-c4ccncc4)n3C)cc(=O)n2c1 | -10.4%
S=c1[nH]c2cc(Br)cnc2[nH]1 | -5.6%
Cc1ccc(-n2c(=O)c3ccc(C(=O)NCc4ccccc4Cl)cc3n(Cc3ccccc3F)c2=O)cc1 | -3.8%
Cc1cccc(N2CCN(CC(=O)N(C)Cc3ccccc3)CC2C)c1 (stereo not given) | 9.6%
NCCC(=O)O | -0.5%&-11.2%
CCCCNC1c2ccccc2C(=O)N1Cc1ccccc1 (stereo not given) | 8.6%
COc1cc(C(=O)c2ccccc2)c(OC)cc1C(=O)Nc1ccc(O)cc1 | 0.6%

3 records drawn at random from those above, as already listed:
molecule | VDR inhibitor
CCCCNC1c2ccccc2C(=O)N1Cc1ccccc1 (stereo not given) | 8.6%
NCCC(=O)O | -0.5%&-11.2%
Cc1ccc(-n2c(=O)c3ccc(C(=O)NCc4ccccc4Cl)cc3n(Cc3ccccc3F)c2=O)cc1 | -3.8%

Compound activity from PubChem BioAssay.
